CHT allo act = allosteric activators of human choline transporter CHT; Q9GZV3; CHT-expressing cells, membrane potential dye, choline EC20; stronger effect = higher value; LV-AA mutant CHT in HEK293 cells; B-score at 10 µM; 310,000 tested, 0.49% active;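 active = initial fluorescence not abnormally high and integrated response B-score, plate-corrected, over 3 SD above library mean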
Target sequence (Q9GZV3 whole entry, looked up): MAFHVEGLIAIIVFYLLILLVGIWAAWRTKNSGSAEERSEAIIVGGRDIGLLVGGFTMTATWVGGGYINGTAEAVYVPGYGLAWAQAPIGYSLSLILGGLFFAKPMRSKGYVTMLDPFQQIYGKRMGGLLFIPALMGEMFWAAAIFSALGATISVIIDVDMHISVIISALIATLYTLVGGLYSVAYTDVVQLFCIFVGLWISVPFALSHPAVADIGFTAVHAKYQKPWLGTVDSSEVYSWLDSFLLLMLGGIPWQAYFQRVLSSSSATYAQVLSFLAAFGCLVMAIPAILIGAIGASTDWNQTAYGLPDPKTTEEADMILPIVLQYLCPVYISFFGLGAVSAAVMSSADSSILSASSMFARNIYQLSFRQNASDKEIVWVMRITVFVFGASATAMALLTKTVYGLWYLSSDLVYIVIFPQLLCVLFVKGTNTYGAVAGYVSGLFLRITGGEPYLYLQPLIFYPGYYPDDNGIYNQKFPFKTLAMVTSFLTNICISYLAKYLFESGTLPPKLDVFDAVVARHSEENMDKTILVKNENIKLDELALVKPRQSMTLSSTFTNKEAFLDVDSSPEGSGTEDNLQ
Calls only; i = inactive. The list is partial, and most or all hits are left out here.

The first two entries, to show the layout:
SMILES	CHT allo act
CCN(C(=O)COC(=O)c1nc(Cl)ccc1Cl)C1CCS(=O)(=O)C1 (stereo not drawn)	i
C=CCn1c(SCC(=O)NC2CCCC2)nc2sc(C)cc2c1=O	i

The whole of this part, from the start:
SMILES	CHT allo act
CCN(C(=O)COC(=O)c1nc(Cl)ccc1Cl)C1CCS(=O)(=O)C1 (stereo not drawn)	i
C=CCn1c(SCC(=O)NC2CCCC2)nc2sc(C)cc2c1=O	i
O=C(C1CCC(=O)N(C2CCCC2)C1)N1CCN(c2ccccc2Cl)CC1 (stereo not drawn)	i
CCOC(=O)c1cnc(-c2ccccc2)nc1N1CC(C)OC(C)C1 (stereo not drawn)	i
CCN(CC)S(=O)(=O)c1ccc2[nH]cc(C(=O)NCCCN3CCCCC3)c(=O)c2c1	i
Cc1cccc(N(Cc2cc3ccccc3[nH]c2=O)S(C)(=O)=O)c1	i
COc1ccccc1NC(=O)C1CCCN(S(=O)(=O)c2ccc3[nH]c(=O)ccc3c2)C1 (stereo not drawn)	i
COc1ccc(-c2c(C)c3cc(O)ccc3oc2=O)cc1OC	i
CC(C)CC(=O)N1CCN(CC2CC=CCC2)CC1 (stereo not drawn)	i
O=C(CO/N=C/c1ccc(OC(F)F)cc1)NC1CCCC1	i
CN(CC#CC1(O)c2ccccc2-c2ccccc21)Cc1ccccc1	i
COc1ccc(S(=O)(=O)NCc2ccccn2)cc1NC(=O)c1ccccc1C	i
CC(C)NC(=O)Cn1c(=O)cnc2ccccc21	i
Cc1nc2ccccn2c(=O)c1NC(=O)c1cccs1	i
COc1ccc(CCNC(=O)C2CC3Cn4c(nc5ccccc54)C3N2c2ccccc2)cc1 (stereo not drawn)	i
CC(C)(C)C(=O)NC(=S)Nc1ccccn1	i
O=C(COC(=O)C1COc2ccccc2O1)NC(=O)NC1CCCCC1 (stereo not drawn)	i
O=C(CSc1nc(-c2ccccc2)c(-c2ccccc2)[nH]1)N1CCN(S(=O)(=O)c2ccccc2)CC1	i
COc1ccc(C(=O)OC(C(=O)c2ccc(C)cc2)c2ccccc2)cc1 (stereo not drawn)	i
CCOC(=O)c1csc(N)n1	i

Another view of seven compounds above:
| canonical_smiles | CHT allo act |
| --- | --- |
| CN(CC#CC1(O)c2ccccc2-c2ccccc21)Cc1ccccc1 | i |
| COc1ccc(S(=O)(=O)NCc2ccccn2)cc1NC(=O)c1ccccc1C | i |
| CC(C)NC(=O)Cn1c(=O)cnc2ccccc21 | i |
| Cc1nc2ccccn2c(=O)c1NC(=O)c1cccs1 | i |
| COc1ccc(CCNC(=O)C2CC3Cn4c(nc5ccccc54)C3N2c2ccccc2)cc1 (stereo not drawn) | i |
| CC(C)(C)C(=O)NC(=S)Nc1ccccn1 | i |
| O=C(COC(=O)C1COc2ccccc2O1)NC(=O)NC1CCCCC1 (stereo not drawn) | i |

Carrying on:
SMILES	CHT allo act
CC1CCN(C(=O)COC(=O)c2cc(S(=O)(=O)N3CCOCC3)ccc2Cl)CC1	i
COc1ccccc1/C=N/NC(=O)c1ccccc1Cl	i
O=C(CSc1nnc(CN2CCOCC2)n1-c1ccc(Cl)cc1)N1CCc2ccccc21	i
COc1cc2c(cc1NC(=O)/C=C/c1ccc([N+](=O)[O-])cc1)oc1ccccc12	i
O=S(=O)(NCc1ccccn1)c1ccc2c(c1)OCCO2	i
CCCCn1c(N)c(N(CC(C)C)C(=O)c2cc(-c3ccco3)nc3ccccc23)c(=O)[nH]c1=O	i
COc1ccc2cc(C(=O)C3CCCN(C(=O)c4cc5nc(C)cc(C)n5n4)C3)ccc2c1 (stereo not drawn)	i
CCOc1ccccc1NC(=S)N1CCN(c2nc(-c3ccc(F)cc3)cs2)CC1	i
Cc1ccc(C)c(CN2C(=O)c3ccccc3S(=O)c3ccc(C(=O)NCCCN4CCCC4)cc32)c1 (stereo not drawn)	i
CCOC(=O)c1cc(C#N)c(N2CCCCC2)nc1-c1ccccc1	i
O=C(Nc1nnc(COc2ccccc2)s1)c1ccco1	i
COc1ccc(N(CC(=O)NC(C)c2ccccc2)S(=O)(=O)c2ccc(C)cc2)cc1 (stereo not drawn)	i
C=CCOC(=O)C1=C[C@H](C(C)(C)C)[C@@H](CCCO)[C@H](OCC)O1	i
COc1cc(OC)cc(-n2nnnc2SCC(=O)NCc2cccs2)c1	i
c1ccc(NC2=NCCN2CC2CCC2)cc1	i
O=[N+]([O-])c1cccc(-c2nnc(SCc3cccnc3)o2)c1	i
CCc1ccc(OCC(=O)NNC(=O)C2CCN(c3ncnc4sc(C)c(C)c34)CC2)cc1	i
O=C(Nc1cccc(S(=O)(=O)N2CCCCCC2)c1)c1ccc2ccccc2n1	i
CCC(C)OC(=O)C1=C(C)NC(=O)CC1c1ccccc1OC (stereo not drawn)	i
COc1cc2cc(CN(CCO)S(=O)(=O)c3ccccc3)c(=O)[nH]c2cc1OC	i
COCCNc1ccc(-c2nn(C)c(=O)c3ccccc23)cc1[N+](=O)[O-]	i
CCN1C(=O)C(O)(CC(=O)c2cccc(-n3cccc3)c2)c2ccccc21 (stereo not drawn)	i
COC(=O)c1sc2nc(SCc3ccccc3C)n(N)c(=O)c2c1C	i
Cc1c(Br)c([N+](=O)[O-])nn1CC(=O)Nc1nccs1	i
COc1ccc(-c2nc3cc(C)ccn3c2NC(=O)c2c(F)cccc2Cl)cc1	i
Cn1c(=O)[nH]c(=O)c2c1nc(NCCN)n2CCOc1ccccc1	i
O=C(CCC(=O)c1ccccc1)NCCc1c[nH]c2ccccc12	i
Nc1c(C(=O)OCC(=O)Nc2ccc(Cl)cc2[N+](=O)[O-])[nH]c(=O)[nH]c1=O	i
CC(=O)Nc1ccc(NS(=O)(=O)c2c(Cl)cccc2Cl)cc1	i
COc1ccc(NC(=O)C(=O)NCCN2CCN(C(=O)c3cccs3)CC2)cc1	i
Cc1c(C(=O)N(Cc2cccc(Br)c2)C2CCS(=O)(=O)C2)oc2ccccc12 (stereo not drawn)	i
COc1ccc(NC(=O)Nc2cccnc2)cc1	i
O=C(Cc1cccc2ccccc12)N/N=C/c1ccc(Sc2nc3ccccc3s2)o1	i
NC(=S)Nc1cnc2ccccc2c1	i
COc1ccc(N2CCN(C(=O)Cc3nn(C)c(=O)c4ccccc34)CC2)cc1	i
CN(C)C(=O)c1ccc(NC(=O)CC2SC(N3CCCC3)=NC2=O)cc1 (stereo not drawn)	i
CN(C(=O)c1ccc(Cl)c([N+](=O)[O-])c1)C1(C)CCS(=O)(=O)C1 (stereo not drawn)	i
Cc1ccccc1NC(=O)c1ccccc1NS(=O)(=O)c1cccc2cccnc12	i
CCn1c(SCc2ccc(C(=O)O)cc2)nnc1-c1ccc(Cl)cc1	i
C[C@H](NC(=O)Cn1cncn1)c1ccccc1	i
COC(=O)c1ccccc1NC(=O)c1cn(-c2ccc(C)c(C)c2)c(=O)c2ccccc12	i
Cc1ccc(-c2nc(SCC(=O)Nc3cc(S(=O)(=O)N4CCCCC4)ccc3Cl)n[nH]2)cc1	i
O=C(Oc1ccccc1)c1cccnc1Oc1ccccc1	i
CCOc1ccc(C(C)=O)cc1N1C(=O)C2C(C1=O)C1C=CC2C12CC2 (stereo not drawn)	i
CCOc1ccccc1CNC(=O)c1cn(C)c(=O)c2c1c1ccccc1n2C	i
COc1ccc(CC(=O)Nc2c3c(nn2-c2cccc(C)c2C)CS(=O)C3)cc1 (stereo not drawn)	i
CC(C)(CNc1ccc([N+](=O)[O-])cc1Cl)CNS(C)(=O)=O	i
C/C(=N/NC(=O)CNC(=O)/C=C/c1ccco1)c1ccc(Cl)cc1	i
COc1cccc(-c2nc(CS(=O)CC(=O)NCc3ccccc3Cl)c(C)o2)c1 (stereo not drawn)	i
Cc1ccc(Cc2c(C)nc3nc(SCC(=O)NCCCN4CCCC4)nn3c2C)cc1	i

Brought forward from above: 6 entries; new compounds follow.
SMILES	CHT allo act
CCOc1ccccc1CNC(=O)c1cn(C)c(=O)c2c1c1ccccc1n2C	i
COc1ccc(CC(=O)Nc2c3c(nn2-c2cccc(C)c2C)CS(=O)C3)cc1 (stereo not drawn)	i
CC(C)(CNc1ccc([N+](=O)[O-])cc1Cl)CNS(C)(=O)=O	i
C/C(=N/NC(=O)CNC(=O)/C=C/c1ccco1)c1ccc(Cl)cc1	i
COc1cccc(-c2nc(CS(=O)CC(=O)NCc3ccccc3Cl)c(C)o2)c1 (stereo not drawn)	i
Cc1ccc(Cc2c(C)nc3nc(SCC(=O)NCCCN4CCCC4)nn3c2C)cc1	i
COCCCn1c(SCC(=O)N(C)C)nnc1-c1ccccc1	i
C=CCN(c1ccc(C(=O)Nc2ccc(NC(C)=O)cc2)cc1)S(C)(=O)=O	i
Cc1ccc(CSc2nc3ncccc3[nH]2)cc1	i
CCOc1ccc2nc(NC(=O)C3(C)CC3(Br)Br)sc2c1 (stereo not drawn)	i
CCOC(=O)N1CCN(C(=O)CNC(=O)Cc2ccc(Cl)cc2)CC1	i
C/C=C/c1ccc(OCc2cc(=O)n3cc(C)ccc3n2)c(OC)c1	i
O=C(Nc1nc2ccccc2n1CCN1CCCCC1)c1ccc(Cl)cc1	i
CCC1Oc2ccc(C)cc2N(CC(=O)NCc2cccc(OC)c2)C1=O (stereo not drawn)	i
CC(=O)N1CCCc2cc(S(=O)(=O)N3CCc4ccccc4C3)ccc21	i
O=C(Nc1ccccc1)[C@@H]1CC=C[C@@H]2CCN(C3CCCCC3)C(=O)[C@@H]21	i
Cc1cccc(NC(=O)COC(=O)c2ccc3c(=O)n4c(nc3c2)CCC4)c1	i
O=C(Nc1nccs1)C1CC(=O)N(Cc2ccco2)C1 (stereo not drawn)	i
CN(C)C(=O)c1cc(Br)ccc1Cl	i
Nc1cccc(NC(=O)c2cccs2)c1	i
CCOC(=O)C1=C(C)NC(C)=C(C(=O)OCC)C1C(=O)OCC(=O)N1c2ccccc2CC1C (stereo not drawn)	i
COc1ccc2cc(CCNC(=O)c3ccc(Br)o3)c(=O)[nH]c2c1	i
Cc1ccc(C)c2[nH]c(=O)c(CN(Cc3ccco3)C(=S)NCC3CCCO3)cc12 (stereo not drawn)	i
Cn1c(C(=O)NCCc2c[nH]c3ccccc23)cc2sccc21	i
COC(=O)c1ccc(Oc2cc(C)nc(Cl)n2)cc1	i
CC(C)CCC(CCN1CCOCC1)c1ccc2c(c1)OCO2 (stereo not drawn)	i
CCN(CC)CCOc1ccc(/C(=C(/Cl)c2ccccc2)c2ccccc2)cc1	i
Cc1ccc(/C=C/C(=O)c2c(C)nc3ccccn23)cc1	i
O=C(COC(=O)/C=C/c1cccc(Br)c1)NCCC1=CCCCC1	i
O=C1CCCC(O)=C1C1C2=C(CCCC2=O)OC2=C1C(=O)CCC2	i
CSc1ccc(C#N)cc1NC(=O)c1ccc(Cl)cc1Cl	i
Cc1ccc(C(C)C)c(OCC(=O)N2CCOCC2)c1	i
COc1ccc(-c2ccccc2)c2oc(-c3ccco3)cc(=O)c12	i
Cc1ccc(C)c(/C=C(\C(=O)O)c2ccc(S(=O)(=O)N3CCCCC3)s2)c1	i
COc1ccc(OCC(=O)N/N=C(/C)Cc2ccccc2)cc1	i
CC1CN(C(=O)c2cccc(C(=O)N3CC(C)OC(C)C3)c2)CC(C)O1 (stereo not drawn)	i
Cc1ccc(C)c(N2CCN(C3CCCC(C)C3)CC2)c1 (stereo not drawn)	i
O=S(=O)(/C=C/c1ccccc1)Nc1ccc(F)cc1	i
COc1ccc(N2C(=O)C(Cl)=C(N3CCCC3)C2=O)cc1	i
O=C(C1CCCN(S(=O)(=O)c2ccccc2)C1)N1CCCCCC1 (stereo not drawn)	i
COCCOC(=O)C1=C(C)NC(=O)N(C(C)=O)C1c1ccc(Cl)cc1 (stereo not drawn)	i
COC(=O)c1ccccc1OCCCN(C)C	i
COCC(=O)NC1CC2CCC(C1)N2C(=S)Nc1ccccc1C(=O)OC (stereo not drawn)	i
Cc1cccc(NC(=O)CN2C(=O)N/C(=C/c3ccc(-c4cccc(C(=O)O)c4C)o3)C2=O)c1	i
Cc1nn(C)cc1CN(C)C(=O)c1cc2nc(-c3ccco3)cc(C(F)(F)F)n2n1	i
O=C(NC1CCCC1)c1ccc(Cn2c(=O)[nH]c3ccsc3c2=O)cc1	i
CCOc1ccc2nc(SC(CC)C(=O)Nc3cc(C)on3)sc2c1 (stereo not drawn)	i
CCOC(=O)c1[nH]c2ccc(OC)cc2c1NC(=O)CCN1CCN(Cc2ccccc2)CC1	i
O=C1OCC2=C1C(c1ccccc1)CC(=O)N2c1ccccc1 (stereo not drawn)	i
CC1CCCC(C(=O)OCc2ccccc2)N1 (stereo not drawn)	i
Cc1cc(=O)oc(C)c1C(=O)Nc1ccc2nsnc2c1	i
CC(=O)Cc1nsc(NC(=O)C2Cc3ccccc3C(=O)O2)n1 (stereo not drawn)	i
O=c1oc2ccc(Cl)cc2cc1-c1nnc(Nc2cccc(C(F)(F)F)c2)s1	i
COCCN(C(=O)c1ccco1)c1nnc(-c2ccc(OC)cc2)s1	i
COc1ccc(/C=C2/SC(=O)NC2=O)cc1	i
O=C(CN(c1ccc(F)cc1)S(=O)(=O)c1ccc2c(c1)OCCO2)Nc1cccnc1	i
(more compounds)
SMILES	CHT allo act
Cc1ccc2nc(NC(=O)c3cc(-c4ccco4)nc4ccccc34)sc2c1	i
CN(CC(=O)Nc1ccc(F)cc1)C(=O)c1ccncc1	i
O=[N+]([O-])c1cccc2ccc(N3CCOCC3)nc12	i
CCCc1nc2nc(C)c(NS(=O)(=O)c3ccc4c(c3)CCCC4)c(=O)n2[nH]1	i
CCC1(CC)C(=O)N=C2c3ccccc3C(=O)N21	i
CS(=O)(=O)Nc1ccc(C(=O)NCCSCc2c(F)cccc2Cl)cc1	i
CC(C)COc1ccc(/C(O)=C2/C(=O)C(=O)N(CCN(C)C)C2c2ccncc2)cc1 (stereo not drawn)	i
CN(CC(=O)NCCN1CCN(Cc2ccccc2)CC1)S(=O)(=O)c1cccc2nsnc12	i
CN(CC(=O)Nc1cccc(F)c1)C(=O)c1cc2c(s1)CCCCC2	i
O=C(NC(NC1CCS(=O)(=O)C1)C(Cl)(Cl)Cl)c1ccc(Br)cc1 (stereo not drawn)	i
COc1cccc(-c2cc(C(=O)N3CCCCC3C)no2)c1 (stereo not drawn)	i

Bioassay records: PubChem, Johns Hopkins Ion Channel Center
